FGF22 binding – binders of recombinant human FGF22 by thermal shift; Q9HCT0; SYPRO orange fluorescence; percent of sucrose octasulfate shift, DMSO zero; calls only at 9.99 µM; 340,000 tested, 1.5% active; AID 651658;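 active means melting point raised past a set limit in the mean and every replicate; inconclusive means no clear call; three in four hits are not shown here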
Target sequence (Q9HCT0 whole entry, looked up): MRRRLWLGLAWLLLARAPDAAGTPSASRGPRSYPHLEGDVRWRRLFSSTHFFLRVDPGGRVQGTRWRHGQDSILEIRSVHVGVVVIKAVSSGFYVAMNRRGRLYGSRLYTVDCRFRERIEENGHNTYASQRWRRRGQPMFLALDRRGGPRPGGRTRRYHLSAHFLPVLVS
MLL AF4-AF9 inh – blocks AF4 peptide binding to human AF9 | P42568 | AlphaScreen, biotin-AF4 peptide binding to FLAG-AF9 | inhibition, % at 10 µM | 350,000 tested, 0.47% active | AID 651704;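 active means every replicate reaching a set inhibition limit, whatever the replicate mean, cut at about 25% in these data; inconclusive means mean inhibition reaches that limit but some replicates miss it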;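 further: 0% = plate neutral control median and 100% = total signal loss; the record names both 10 and 1 µM as test concentration; the first replicate is given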
Target sequence (P42568 whole entry, looked up): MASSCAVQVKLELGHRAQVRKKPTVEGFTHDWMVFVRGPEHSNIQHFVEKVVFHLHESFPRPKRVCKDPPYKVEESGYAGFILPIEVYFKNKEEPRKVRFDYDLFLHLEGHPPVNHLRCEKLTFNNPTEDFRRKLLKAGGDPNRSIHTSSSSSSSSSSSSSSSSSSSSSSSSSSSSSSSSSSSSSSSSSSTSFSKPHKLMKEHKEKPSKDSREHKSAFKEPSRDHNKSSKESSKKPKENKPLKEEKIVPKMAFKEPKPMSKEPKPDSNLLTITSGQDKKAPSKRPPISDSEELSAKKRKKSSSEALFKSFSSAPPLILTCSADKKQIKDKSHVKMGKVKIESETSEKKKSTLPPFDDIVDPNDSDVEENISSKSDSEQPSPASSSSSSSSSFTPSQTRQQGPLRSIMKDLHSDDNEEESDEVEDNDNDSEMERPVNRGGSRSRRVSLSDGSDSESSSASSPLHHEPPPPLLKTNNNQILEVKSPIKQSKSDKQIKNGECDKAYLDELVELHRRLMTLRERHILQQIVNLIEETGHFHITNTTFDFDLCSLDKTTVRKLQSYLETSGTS
T cruzi repl – blocks replication of Trypanosoma cruzi | AID 1885 | 300,000 tested, 1.4% active | inhibition, % (concentration not given with the values) | T. cruzi beta-gal in NIH3T3, luminescence, 90 h;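 active means mean inhibition across valid replicates above about 55%, limit read from the data; inconclusive means mean below that limit but half or more replicates reach it; inactive means mean below it, under half of replicates reach it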;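 further: signal also drops with host cell toxicity which is not excluded here; 0% = plate median of DMSO wells and 100% = zero luminescence signal; higher percent means less beta-gal luminescence so fewer parasites; stock transfer was 50 nL into about 50 µL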
Beta apoptosis – blocks beta cell apoptosis; protection from apoptosis, % (no concentration beside the values); INS-1E cytokine-induced death, ATP luminescence, 48 h; percent of positive-control rescue, neutral wells zero; 300,000 tested, 0.8% active;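 active means all replicates at 75% or more, or half of them and the mean; inconclusive means half reach 75% but not the mean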;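 further: 0% = cytokine-treated negative control wells and 100% = positive control rescue; higher means more ATP so stronger rescue from cytokine killing; wells of about 40 µL received 100 nL stock; the first replicate is given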
RanGTP-Impb inh – inhibitors of RanGTP-importin-beta interaction, primary screen, biochemical, FRET, CFP-Ran, YFP-importin-beta, homogeneous; cell-free CFP-Ran/YFP-importin-beta FRET ratio; 300,000 tested, 1.1% active; inhibition, % (concentration not given with the values);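 active means most replicates above 15%; inconclusive means exactly half above 15%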;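 further: 0% = DMSO wells and 100% = Ran loaded with GDP instead of GTP; wells of about 40 µL received 100 nL stock; the first replicate is given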
Calb FLC – C. albicans growth modulation with fluconazole; growth inhibition, % (concentration not given with the values); AID 1979; C. albicans CaCi-2 (fluconazole-resistant clinical isolate) + fluconazole, Alamar Blue growth, 48 h; 300,000 tested, 0.57% active;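 active means most replicates above 75%; inconclusive means exactly half above 75%; inactive means most below 75%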;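 further: all wells also contain fluconazole at 8 µg/ml as a sub-toxic cotreatment; 0% = median of DMSO wells and 100% = median of geldanamycin control wells; wells of about 8 µL received 7.5 nL stock; the first replicate is given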
rRNA inh HTS – inhibits bacterial ribosomal RNA function over humanized ribosomes. 350,000 tested, 1.6% active. AID 720706. E. coli WT GFP vs humanized-ribosome RFP mutants, fluorescence, 24 h; active compounds read low; DMSO median 0, no signal -100. GFP signal change (wild-type ribosome), % (concentration not given with the values);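 active means significant combined selectivity score with lowered wild-type GFP, culture density cut under 30%, mutant RFP and density less affected; inactive means any of these conditions unmet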; further: one replicate is shown; some compounds called inactive have numbers as strong as hits
ALR inh – blocks human ALR sulfhydryl oxidase activity; P55789; purified ALR, DTT oxidation, H2O2 HRP-luminol luminescence; inhibition, % (concentration not given with the values); 290,000 tested, 3.8% active; AID 485317;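 active means mean and each replicate at 75% or more; inconclusive means only one of the two met; inactive means neither met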;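 further: stock transfer was 7.5 nL into about 7.5 µL; 0% = neutral wells and 100% = wells with inactivated enzyme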
Target sequence (P55789 whole entry, looked up): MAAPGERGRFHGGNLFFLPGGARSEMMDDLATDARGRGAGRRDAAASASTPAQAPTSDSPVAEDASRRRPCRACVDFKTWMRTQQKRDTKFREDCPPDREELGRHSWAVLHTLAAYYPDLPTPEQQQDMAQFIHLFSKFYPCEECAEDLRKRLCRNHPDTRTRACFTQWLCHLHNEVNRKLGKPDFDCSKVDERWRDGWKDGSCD
rRNA inh HTS OD600 – recorded beside rRNA inh HTS, whose call it bears; OD600 change, %; measured here: OD600 growth;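 optical density of the mix in the first replicate; 0 = DMSO median and -100 = no signal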
rRNA inh HTS RFP – second read-out of rRNA inh HTS, no call of its own (marks repeat the call); RFP signal change, %; measured here: RFP humanized mutant strains;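 first replicate; 0 = DMSO median and -100 = no signal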
An asterisk follows results filed as active; i = inactive; ? = inconclusive; / = not tested or not shown; & = joins results of further samples.

SMILES	FGF22 binding	MLL AF4-AF9 inh	T cruzi repl	Beta apoptosis	RanGTP-Impb inh	Calb FLC	rRNA inh HTS	rRNA inh HTS OD600	rRNA inh HTS RFP	ALR inh
O=C(O)CCC1COc2ccccc2O1 (centres undefined)	/	/	-3.7	-4.1	?	?	/	/	/	4.2
COC(=O)Cn1c(=NC(=O)c2ccc(OC)c(OC)c2)sc2cc(OC)ccc21	i	-5.9	-3.4	-0.6	3.4	3.8	/	/	/	-23.3
O=C(Nc1ccc(C(=O)NCc2ccc(F)cc2)cc1)C1=CSCCO1	i	1.7	-13.2	/	-2.0	-19.6	-0.4	9.2	0.0	-3.5
Cc1nn(C(C)C(=O)O)c(C)c1[N+](=O)[O-] (centres undefined)	i	-1.3	-7.4	-6.2	-0.5	-1.0	16.9	7.0	-0.4	0.4
O=C(O)c1ccccc1-c1nc2ccccc2[nH]1	i	-1.1	-6.2	7.2	8.2	5.5	3.8	2.8	-1.1	-4.7
O=C(COC(=O)C1CC2C=CC1C2)NCc1ccco1 (centres undefined)	/	/	-9.5	3.9	2.0	3.5	/	/	/	/
COC(=O)Nc1ccc(S(=O)(=O)N2CCCC(C(=O)N3CCCCCC3)C2)cc1 (centres undefined)	i	0.3	-2.1	0.2	-2.9	-14.5	-0.4	5.3	-1.6	-6.2
CCC(=O)N(CCC(c1ccco1)C(C)C)Cc1ccccc1 (centres undefined)	i	-0.3	/	/	-0.5	-7.7	-38.6*	-14.1*	0.5*	5.7
COc1cc(S(=O)(=O)N2CCOCC2)cc(C(=O)NCC(c2cccs2)N2CCOCC2)c1OC (centres undefined)	i	-14.4	/	-6.1	/	/	7.4	16.9	-0.9	-18.6
O=C(Oc1cccc2ccccc12)C1CC1	i	4.0	7.3	-1.5	1.6	29.0	5.9	9.2	-2.2	-23.3
CN(C)c1nc(NCc2ccccc2)nc(N/N=C/c2ccccc2F)n1	/	/	25.5	-0.3	8.8	4.4	/	/	/	48.9
Cc1ccc(CCNC(=O)C2CCCN(S(=O)(=O)N3CC(C)CC(C)C3)C2)cc1 (centres undefined)	i	-2.1	13.1	0.1	-1.6	3.3	2.7	-1.1	0.2	-1.4
COC(=O)c1cc(C#N)c(NCc2ccc(Cl)cc2Cl)nc1C	/	/	-8.8	7.8	4.4	-4.1	/	/	/	/
Cc1nc2cc(N3CCCCC3)c(NC(=O)c3cccnc3)cc2c(=O)n1Cc1ccccc1	/	/	3.5	6.8	1.2	9.3	/	/	/	12.4
Cn1ccnc1SCC(=O)c1cc2ccccc2o1	/	/	-1.3	-0.7	2.9	12.8	/	/	/	-1.6
COc1ccc(-c2ccc(CCC(=O)O)n2NC(N)=O)cc1	i	-9.7	21.8	-0.1	3.1	-2.4	9.6	3.3	-3.3	31.2
CCc1ccc(-c2cc3c(=O)n(CC(=O)NCCN4CCCCC4C)nc(C)n3n2)cc1 (centres undefined)	i	2.6	36.0	11.2	8.7	9.8	8.0	-2.8	3.3	-31.5
O=[N+]([O-])c1ccc(N2CCN(c3ccccc3F)CC2)nc1	i	1.2	-11.6	-1.0	6.7	-4.8	13.3	10.7	0.7	4.1
O=C(/C(C=Nc1ccc(Br)cc1)=C(/O)c1ccco1)C(F)(F)F	i	6.1	6.2	-4.7	-4.2	-1.3	-11.5	0.3	7.4	9.5
O=[N+]([O-])c1ccc(N2CCCCC2)cc1SCCO	i	1.7	9.1	2.1	-0.7	0.1	-20.3	-16.8	-5.1	-5.6
COc1cc2c(cc1OC)C(c1cccc([N+](=O)[O-])c1)N(C(=O)c1ccccc1C(=O)O)CC2 (centres undefined)	i	5.5	-16.1	-2.5	?	16.9	11.2	7.2	0.8	-6.3
COc1ccc(-c2nnn(CCC(=O)O)n2)cc1	/	/	-0.7	3.5	4.9	?	/	/	/	-1.0
O=C(CSc1ncn[nH]1)Nc1nnc(-c2ccccc2)s1	/	/	-3.5	-3.5	-3.6	-1.0	/	/	/	4.2
CC(C)CN1C(=O)/C(=C/c2ccco2)NC1=S	i	-7.4	-19.9	-15.1	1.1	-3.9	5.0	-0.1	-5.4	8.7
COC(=O)CC1Oc2ccccc2N(Cc2ccccc2)C1=O (centres undefined)	i	-3.6	-8.0	-8.2	0.1	1.4	-8.0	-5.9	-0.4	/
CCOc1cc(NC(=S)N2CCC(C(N)=O)CC2)c(C(=O)OC)cc1OCC	i	-3.5	1.2	0.0	-0.8	8.6	1.7	-5.0	-17.7	-4.4
CCc1cc(=O)oc2c(C)c(OCC(=O)NCCN3CCOCC3)ccc12	i	-8.1	-7.6	-1.0	0.7	3.9	-4.3	3.4	-0.4	0.7
CC(=O)CSc1cc(C)nc2c(-c3ccccc3)c(C)nn12	i	-1.2	-11.6	-5.7	5.5	7.7	2.2	-1.3	0.9	-19.4
COc1cccc(NC(=O)CN(C)C(=O)c2ccc(COc3ccccc3)cc2)c1	i	-0.5	7.2	-4.6	0.5	0.3	-7.3	-3.0	0.2	-6.8
CC(=NCc1cccnc1)C1=C(O)c2ccccc2C1=O	/	/	-24.4	-1.1	-0.4	10.3	/	/	/	-1.9
CCCCCC1CC(CC#CCN2CCOCC2)C(=O)O1 (centres undefined)	/	/	-5.1	-1.5	5.3	19.6	6.2	3.3	1.2	-2.2
CC(=O)c1c(N2CCN(C)CC2)nc(=S)n(Cc2ccccc2)c1C	i	3.3	2.9	-6.4	?	25.5	11.5	13.8	1.9	-1.6
O=C(NNC(=O)c1ccccc1O)c1cccc(Br)c1	i	3.6	2.6	0.5	1.1	22.3	-45.6	-77.7	-11.2	-7.5
COC(=O)[C@H](C)NC(=O)NCc1ccccc1	i	1.0	-4.4	3.0	5.0	5.1	15.2	13.5	1.9	/
COc1ccc(CNC(=O)/C=C/c2cc([N+](=O)[O-])ccc2OC(F)F)cc1OC	/	/	5.2	4.1	-3.2	-13.3	/	/	/	-4.6
Cc1[nH]nc(SCC(=O)NCc2ccc(Cl)cc2)c1[N+](=O)[O-]	/	/	-1.2	-5.8	7.0	-11.8	/	/	/	-10.2
CC(C)CCNC(=O)CN(Cc1ccco1)C(=O)c1snc(C(N)=O)c1N	i	-2.2	-1.4	-2.4	6.3	-3.8	27.9	18.2	8.7	-4.3
CCNS(=O)(=O)c1ccc(CCC(=O)N2CCN(C(=O)OCC)CC2)cc1	i	1.1	-6.4	-5.3	-1.0	-5.9	0.2	2.8	-2.8	-3.8
CC(C)c1ccc(C2(O)C(=O)Nc3cc(Br)ccc32)c(O)c1 (centres undefined)	i	2.0	-1.2	0.2	5.4	-2.4	-32.7	-51.5	-1.2	19.8
c1ccc(COc2ccccc2CNC2CCCC2)cc1	i	1.0	11.6	2.0	-1.4	-24.1	3.0	-4.2	-3.5	3.4

Results in rRNA inh HTS RFP and Calb FLC, for 2 of the compounds above:
| SMILES | rRNA inh HTS RFP | Calb FLC |
| --- | --- | --- |
| COc1cccc(NC(=O)CN(C)C(=O)c2ccc(COc3ccccc3)cc2)c1 | 0.2 | 0.3 |
| CCc1ccc(-c2cc3c(=O)n(CC(=O)NCCN4CCCCC4C)nc(C)n3n2)cc1 (centres undefined) | 3.3 | 9.8 |

(cont.)
SMILES	FGF22 binding	MLL AF4-AF9 inh	T cruzi repl	Beta apoptosis	RanGTP-Impb inh	Calb FLC	rRNA inh HTS	rRNA inh HTS OD600	rRNA inh HTS RFP	ALR inh
COc1ccccc1NCC(O)COc1ccc(C(C)(C)C)cc1 (centres undefined)	i	11.8	2.2	-6.9	2.9	7.0	-38.6*	31.1*	3.1*	65.7
COc1ccc(CNC(=O)C2CCN(S(=O)(=O)N3CCCC3)CC2)c(OC)c1	i	-3.8	1.5	-1.4	2.4	-3.3	10.8	-1.2	1.1	0.0
CCN(CC(O)CON=C1c2ccccc2-c2ccccc21)S(=O)(=O)c1ccc(Cl)cc1 (centres undefined)	/	/	61.7*	24.0	-1.7	11.8	/	/	/	-2.4
O=C(CSc1nnc2scc(-c3ccccc3)n12)Nc1nsc(-c2ccccc2)n1	i	8.3	-20.9	7.2	7.1	34.1	1.0	12.2	-2.9	-8.9
Cc1cc2sc3ccccc3c(=O)c2c(C)c1O	i	-4.1	-8.8	-4.0	?	7.6	-30.6	-39.9	32.4	26.8
COc1ccc(CC(=O)N/N=C(\C)CC(=O)Nc2ccc3c(c2)OCCO3)cc1OC	i	1.4	-11.1	6.3	-2.3	2.2	5.7	5.3	-0.4	13.4
COc1cc(NC(=O)CSc2nc(C3CC3)nc3ccccc23)cc(OC)c1	i	-2.1	10.1	-8.6	-1.4	-5.3	5.3	2.0	-0.2	-8.2
CCN1C(=O)CC(n2c(C)nc3ccccc32)C1=O (centres undefined)	/	/	1.0	3.7	7.5	-6.1	/	/	/	-5.7
CCc1cc2c(=O)n(CC(C)C)cnc2s1	i	2.5	-12.3	-4.1	-1.1	-8.4	4.8	2.8	-2.7	-4.8
C[C@@H]1CN([C@@H](C)CO)C(=O)c2cc(N(C)C)ccc2O[C@@H]1CN(C)S(C)(=O)=O	i	-1.4	/	2.4	/	/	2.5&10.5	-4.5&16.9	1.8&4.4	?
COc1ccc(C(C[N+](=O)[O-])c2c(-c3ccccc3)cc3ccccn23)cc1 (centres undefined)	/	/	-14.9	-7.9	9.0	-0.7	/	/	/	-5.5
O=C1CCC([N+](=O)[O-])C(c2cccc([N+](=O)[O-])c2)N1 (centres undefined)	i	-4.0	-5.8	-4.7	-2.6	8.9	15.1	-2.3	10.6	0.6
Cc1ncc(CO)c(/C=N/NC(=S)Nc2cccc(Cl)c2)c1O	/	/	13.9	-2.3	4.5	-23.8	/	/	/	19.7
CN(Cc1ccco1)C(=O)Cn1cc(S(=O)(=O)N2CCCC2)c(S(=O)(=O)N2CCCC2)c1	i	1.0	-16.5	-4.4	?	3.7	6.7	6.8	-1.2	2.5
Cc1ccccc1-c1nc(CS(=O)(=O)CC(=O)NCc2ccc3c(c2)OCO3)c(C)o1	i	-0.6	-3.9	1.4	-1.4	-6.4	-8.6	-24.2	-6.6	-0.5
CC(C)c1ccc([N+](=O)[O-])cc1S(=O)(=O)N1CCN(C)CC1	i	3.1	3.5	-0.2	0.3	-0.6	-0.5	4.4	-5.4	3.0
CCc1ccc(OCC(=O)N/N=C/c2cc([N+](=O)[O-])ccc2N2CCCCCC2)cc1	/	/	4.6	-4.1	-2.6	-14.2	/	/	/	1.2
COc1ccccc1CNC(=O)N1CCN(S(=O)(=O)c2ccccc2)CC1	i	0.9	4.0	-2.8	-0.7	5.3	1.3	3.0	1.7	-13.7
Cc1ccc(NC(=O)CSCC(=O)O)cc1	i	-1.3	-8.8	-3.1	1.6	-4.9	10.0	12.7	0.3	97.8*
Cc1ccc2[nH]c3c(c2c1)CCNC3=O	i	-0.9	-6.1	-0.9	3.4	-2.6	-9.9	-1.3	0.2	-18.4
COc1ccccc1NC(=O)CCC(=O)Nc1nnc(C2CCCCC2)s1	i	-1.1	-2.8	/	-1.0	-10.0	2.9	6.8	-2.9	1.4
CCc1cccc(NC(=O)C2CCCN(S(=O)(=O)c3cnc[nH]3)C2)c1 (centres undefined)	i	-1.2	-5.7	-4.6	8.2	-4.2	2.8	-4.2	-5.5	-0.1

Screening results as filed in PubChem BioAssay.

A portion of the library. The share of hits here may be higher or lower than overall.
